NS1 inh: blocks influenza NS1 protein function; AID 2326; S. cerevisiae slowed by influenza A NS1, growth recovery by OD600; 270,000 tested, 0.4% active; Potency, µM (highest dose often 46.1 µM), for inactives: top-dose activity, positive = more growth; note: actives are rising curves; nearly all actives have a fitted effect of over 50% in size
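Recovery from NS1-induced slow growth read by OD600 in budding yeast switched to galactose assay medium (pH 6.0, -URA) at 1:100 dilution. Compound 23 nl per well; the matching strain lacking NS1 serves as control.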
MARV entry inh: inhibitors of Marburg virus binding or cell entry. Marburg virus pseudotyped entry inhibition, cell reporter; control for the full effect not named in the record; about a third of the inactives were read at about 46 µM. AID 540276. Potency, µM (titrated, usually from 37.8 µM), for the others: top-dose activity change, negative = inhibition, actives largely listed as inhibitors. 300,000 tested, 1.8% active; active = well fitted inhibition curve with a large enough effect; inconclusive = small, poorly fitted or top-dose-only effect, or effect the other way; inactive = flat fitted curve, though single readings scatter; tested in HEK293 cells; about a fifth of its hits are not listed in these tables; note: % is set by controls: 0 for no effect and ±100 for the full control effect; luciferase read-out
StopGo reporter: FMDV 2A StopGo reporter, luciferase signal. human cells with a luciferase reporter of 2A StopGo recoding; control for the full effect not named in the record. AID 1159524. 410,000 tested, 1.2% active. Potency, µM (series often up to 57.9 µM), for the others: at the highest dose signal change, negative = less light; active = well fitted falling curve with a large enough effect; inconclusive = small, poorly fitted or top-dose-only effect; inactive = no such curve, though single readings can be large or run the other way; tested in HEK293T cells; note: % is set by controls: 0 for no effect and ±100 for the full control effect; nearly all actives have a fitted effect of over 45% in size; luciferase light after 4 h
SARS PLP yeast: inhibitors of SARS-CoV papain-like protease in yeast; S. cerevisiae expressing SARS-CoV PLpro, growth rescue; control for the full effect not named in the record; AID 485353; Potency, µM (highest dose often 32.9 µM), inactives show at the top dose activity, positive = growth rescue; 330,000 tested, 0.19% active; note: 0% is about no effect; nearly all actives have a fitted effect of over 55% in size; growth read by luminescence after 48 h
LASV entry inh: blocks Lassa virus binding to or entry into cells; Lassa virus pseudotype entry inhibition, cell reporter; control for the full effect not named in the record; Potency, µM (titrated, usually from 37.9 µM), inactives show top-dose activity change, negative = inhibition, usual class: inhibitors; 300,000 tested, 1.2% active; AID 540256; active means well fitted inhibition curve with a large enough effect; inconclusive means small, poorly fitted or top-dose-only effect, or effect the other way; inactive means flat fitted curve, though single readings scatter; tested in HEK293 cells; note: % is set by controls: 0 for no effect and ±100 for the full control effect; nearly all actives have a fitted effect of over 50% in size; luciferase read-out
Cruzain noTriton: blocks cruzain activity in detergent-free assay | AID 1476 | Potency, µM, for the others: max response, negative = inhibition, usual class: inhibitors | P25779 | 200,000 tested, 2.3% active | purified cruzain, Z-FR-AMC fluorescence, no detergent; active = well fitted curve in the direction sought with a large enough effect; inconclusive = small, poorly fitted or top-dose-only effect, or another doubt; inactive = no such curve, though single readings can be large; an effect the other way counts as inactive or inconclusive;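 note: plate controls were enzyme without inhibitor for no effect and buffer without enzyme for full effect; nearly all actives have a fitted effect of over 40% in size; top concentration of the series not given in the record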
Target sequence (P25779 123-467 limits assumed): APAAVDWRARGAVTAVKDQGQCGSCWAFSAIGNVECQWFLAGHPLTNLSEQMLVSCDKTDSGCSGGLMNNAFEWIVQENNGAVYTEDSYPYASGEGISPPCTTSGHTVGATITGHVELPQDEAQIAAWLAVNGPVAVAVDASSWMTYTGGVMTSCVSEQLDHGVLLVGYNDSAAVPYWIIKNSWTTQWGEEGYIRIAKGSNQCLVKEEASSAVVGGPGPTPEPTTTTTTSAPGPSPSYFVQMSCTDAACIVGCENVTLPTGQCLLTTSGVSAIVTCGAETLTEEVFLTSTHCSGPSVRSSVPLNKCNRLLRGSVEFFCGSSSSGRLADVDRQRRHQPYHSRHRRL
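Detergent-free condition (0.00005% Triton X-100) in acetate buffer pH 5.5 with DTT. 1.5 nM enzyme and compound were pre-mixed 15 min, then 2 uM Z-FR-AMC substrate added; reaction progress from fluorescence change between first and third reads (60 s).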
RE007 growth inh: less growth of the S. pombe RE007 Vpr strain; Potency, µM (highest dose often 92.2 µM), for the others: at the highest dose activity change, negative = less growth; 360,000 tested, 0.21% active; AID 651644; S. pombe RE007 Vpr strain, BacTiter-Glo ATP luminescence, 24 h; control for the full effect not named in the record; active = well fitted falling curve with a large enough effect; inconclusive = small, poorly fitted or top-dose-only effect; inactive = no such curve, though single readings can be large or run the other way;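 note: % is set by controls: 0 for no effect and ±100 for the full control effect; nearly all actives have a fitted effect of over 50% in size; the assay follows cell death caused by Vpr and the record does not say whether a fall means rescue or toxicity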
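Fission yeast strain RE007, carrying one chromosomally integrated HIV-1 vpr copy, was seeded at OD 0.01 in PMG+AL medium with 23 nL pinned compound. After 24 h at 30 °C and 99% humidity, viability was read by BacTiter-Glo luminescence.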
Cruzain inh Det: cruzain (T. cruzi) inhibition with detergent. purified cruzain, Z-FR-AMC fluorescence, 0.01% Triton. AID 1478. P25779. 200,000 tested, 0.43% active. Potency, µM, for the others: max response, negative = inhibition, most hits filed as inhibitors; active = well fitted curve in the direction sought with a large enough effect; inconclusive = small, poorly fitted or top-dose-only effect, or another doubt; inactive = no such curve, though single readings can be large; an effect the other way counts as inactive or inconclusive;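 note: plate controls were neutral wells for no effect and buffer without enzyme for full effect; nearly all actives have a fitted effect of over 40% in size; top concentration of the series not given in the record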
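Cysteine protease activity tested under reducing, mildly acidic conditions (100 mM sodium acetate pH 5.5, 5 mM DTT) plus 0.01% Triton X-100. Cruzain 1.5 nM; substrate Z-FR-AMC 2 uM; 15 min compound preincubation at room temperature.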
Starred values were filed as active, the others as inactive; & = joins results of further samples; [ ] = dose if it differs, or a comment. Unless noted, calls come from the whole dose curve; as a rule, active means well fitted rising curve with a large enough effect; inconclusive means small, poorly fitted or top-dose-only effect; inactive means no such curve, though single readings can be large or run the other way. Potency is the fitted concentration of half-maximal effect.

Results for NS(=O)(=O)c1ccc(CNC(=O)CCSCCC(=O)NCc2ccc(S(N)(=O)=O)cc2)cc1 ?
NS1 inh: 2%; MARV entry inh: -7%[46.1 µM]; StopGo reporter: -1%; SARS PLP yeast: 0%; LASV entry inh: 12%; RE007 growth inh: -11%

What do the screens show for `CN(CC(=O)Nc1ccccc1Cl)CC(=O)Nc1ccccc1[N+](=O)[O-]`?
MARV entry inh: -1%[46.1 µM]; StopGo reporter: -15%; SARS PLP yeast: 0%; LASV entry inh: -1%; RE007 growth inh: -8%

How did O=C(O)CCC(=O)Nc1cccc(C(=O)Nc2cccc(Cl)c2)c1 do in these assays?
NS1 inh: -2%; MARV entry inh: -2%; StopGo reporter: -12%; SARS PLP yeast: 5%; LASV entry inh: inconclusive; Cruzain noTriton: 8%; RE007 growth inh: 4%; Cruzain inh Det: -0.1%

Results for Cc1csc(=O)n1CCC(=O)OCC(=O)NCc1ccc(F)cc1 ?
MARV entry inh: inconclusive; StopGo reporter: -15%; SARS PLP yeast: -1%; LASV entry inh: 15%; RE007 growth inh: 29%

Results for O=C(c1ccc2c(c1)OCO2)N1CCN(CCN2C(=O)c3cccc4cccc(c34)C2=O)CC1 ?
MARV entry inh: 5%[46.1 µM]; StopGo reporter: -5%; LASV entry inh: -3%; RE007 growth inh: -5%

Results for Cc1cc(C)cc(NC(=O)Cn2c(C(F)(F)F)nc3ccccc32)c1 ?
MARV entry inh: 9%[46.1 µM]; StopGo reporter: -22%; LASV entry inh: 0%[46.1 µM]; Cruzain noTriton: -1%; Cruzain inh Det: -2.0%

What do the screens show for `COc1ccc(C(=O)NNC(=O)c2ccncc2)cc1`?
NS1 inh: -6%; MARV entry inh: 3%; StopGo reporter: -8%; SARS PLP yeast: -15%; LASV entry inh: 17%; Cruzain noTriton: 1%; RE007 growth inh: 12%; Cruzain inh Det: 5.4%

Results for CC1C2C(c3ccccc3)N(C)C(=O)N(C)C2N(C)C(=O)N1C (centres undefined) ?
NS1 inh: inconclusive; MARV entry inh: 7%; StopGo reporter: -6%; SARS PLP yeast: 3%; LASV entry inh: 0%; Cruzain noTriton: 9%; RE007 growth inh: 4%; Cruzain inh Det: 2.8%

What do the screens show for `CCn1nc(C)cc1C(=O)N1CCCC(N2CCN(c3ccccc3OC)CC2)C1` (centres undefined)?
MARV entry inh: 11%; StopGo reporter: -26%; LASV entry inh: inconclusive; RE007 growth inh: 17%

How did Cc1cc(C(=O)CN2C(=O)NC3(CCCCC3)C2=O)c(C)n1C do in these assays?
NS1 inh: 2%; StopGo reporter: 47%[activator]; SARS PLP yeast: 1%; RE007 growth inh: 20%

What do the screens show for `COc1cccc(C(CNC(=O)c2ccc(Cl)c(S(=O)(=O)N3CCCC3)c2)N(C)C)c1` (centres undefined)?
MARV entry inh: inconclusive; StopGo reporter: inconclusive; SARS PLP yeast: -5%; LASV entry inh: inconclusive; RE007 growth inh: 14%

What do the screens show for `NC1=NC[C@H](CC2CCCCC2)N1CCc1cc(C(F)(F)F)cc(C(F)(F)F)c1`?
NS1 inh: 12%; StopGo reporter: inconclusive; SARS PLP yeast: -7%; RE007 growth inh: 22%

What do the screens show for `CCCCOc1ccc(CNC(=O)c2cnc3sc(N4CCCCCC4)nn3c2=O)cc1`?
StopGo reporter: -8%; LASV entry inh: -4%[46.1 µM]; Cruzain noTriton: -5%; Cruzain inh Det: -0.9%

How did O=c1cc(NS(=O)(=O)c2ccccc2)nc(SCc2ccc(Cl)cc2)[nH]1 do in these assays?
NS1 inh: inconclusive; MARV entry inh: inconclusive; StopGo reporter: -13%; SARS PLP yeast: inconclusive; LASV entry inh: 9%; Cruzain noTriton: inconclusive; RE007 growth inh: 7%; Cruzain inh Det: -3.7%

How did Cc1cc(NC(=O)CCC(=O)N(CC(=O)NCC2CCCO2)c2ccccc2C)no1 (centres undefined) do in these assays?
NS1 inh: -6%; MARV entry inh: -5%[46.1 µM]; StopGo reporter: 8%; SARS PLP yeast: 30%; LASV entry inh: -5%; Cruzain noTriton: 4%; RE007 growth inh: 6%; Cruzain inh Det: 2.2%

What do the screens show for `CCN(CC)S(=O)(=O)c1ccc(C)c(NC(=O)COc2ccc(Br)cc2Cl)c1`?
NS1 inh: 13%; MARV entry inh: -14%; StopGo reporter: -5%; SARS PLP yeast: -1%; LASV entry inh: -7%; Cruzain noTriton: -20%; RE007 growth inh: 6%; Cruzain inh Det: -3.8%

What do the screens show for `CCOC(=O)[C@@H]1[C@H]2COc3ccccc3[C@@H]2N2C(=O)N(c3cccc(C)c3)C(=O)[C@]12C`?
NS1 inh: -12%; StopGo reporter: -13%; SARS PLP yeast: 3%; RE007 growth inh: -16%

How did CCOC(=O)c1[nH]c(C)c(CCC(=O)O)c1C do in these assays?
NS1 inh: 9%&7%; MARV entry inh: inconclusive; StopGo reporter: -6%&18%; SARS PLP yeast: 12%&27%; LASV entry inh: -11%&-11%; Cruzain noTriton: 5%&-6%; RE007 growth inh: -3%&20%; Cruzain inh Det: 0.8%&3.8%

How did O=c1c(Cl)c(N2CCNCC2)cnn1C12CC3CC(CC(C3)C1)C2 do in these assays?
MARV entry inh: -18%; StopGo reporter: -17%; SARS PLP yeast: -2%; LASV entry inh: -2%; RE007 growth inh: -3%

Results for COc1ccccc1CNC(=O)c1ccc2c(=O)n(CC3CCCO3)c(=S)[nH]c2c1 (centres undefined) ?
NS1 inh: -11%; MARV entry inh: -18%[46.1 µM]; StopGo reporter: -29%; SARS PLP yeast: -2%; LASV entry inh: 4%; RE007 growth inh: 5%

The final two records of the section before lead into the next:
How did O=c1c(Cl)c(N2CCNCC2)cnn1C12CC3CC(CC(C3)C1)C2 do in these assays?
MARV entry inh: -18%; StopGo reporter: -17%; SARS PLP yeast: -2%; LASV entry inh: -2%; RE007 growth inh: -3%

Results for COc1ccccc1CNC(=O)c1ccc2c(=O)n(CC3CCCO3)c(=S)[nH]c2c1 (centres undefined) ?
NS1 inh: -11%; MARV entry inh: -18%[46.1 µM]; StopGo reporter: -29%; SARS PLP yeast: -2%; LASV entry inh: 4%; RE007 growth inh: 5%

Results for COc1ccc(-c2ccnc(SCC(=O)N3CCN(c4ccccc4)CC3)n2)cc1 ?
NS1 inh: 5%; MARV entry inh: 5%; StopGo reporter: -22%; SARS PLP yeast: -1%; RE007 growth inh: 8%

Results for COc1cc(NC(=O)CCn2c(=O)[nH]c3ccsc3c2=O)cc(OC)c1 ?
NS1 inh: 4%; MARV entry inh: 0%; SARS PLP yeast: -15%; LASV entry inh: 14%; Cruzain noTriton: -9%; RE007 growth inh: 2%; Cruzain inh Det: -2.2%

Results for Cn1cc(S(=O)(=O)N2CCOCC2)cc1C(=O)Nc1ccc(Cl)c(C(F)(F)F)c1 ?
StopGo reporter: -30%; LASV entry inh: inconclusive; Cruzain noTriton: 3%; Cruzain inh Det: -4.4%

Results for COc1ccc(-c2nc(N)n(C(=O)c3ccc(C)cc3)n2)cc1 ?
NS1 inh: 22%; MARV entry inh: inconclusive; StopGo reporter: -9%; SARS PLP yeast: -6%; LASV entry inh: 14%; Cruzain noTriton: -17%; RE007 growth inh: 6%; Cruzain inh Det: 0.4%

What do the screens show for `CCN(CC)CCN1CCn2c3c(c4cc(C)ccc42)CCCC31` (centres undefined)?
NS1 inh: 24%; MARV entry inh: inconclusive; StopGo reporter: -15%; SARS PLP yeast: -3%; LASV entry inh: inconclusive; Cruzain noTriton: -4%; RE007 growth inh: -15%; Cruzain inh Det: -8.4%

How did CC(=O)NC1=NC(=O)C(C)S1 (centres undefined) do in these assays?
NS1 inh: -3%; MARV entry inh: inconclusive; StopGo reporter: -16%; SARS PLP yeast: 1%; LASV entry inh: 0%; Cruzain noTriton: 1%; RE007 growth inh: -7%; Cruzain inh Det: -0.4%

What do the screens show for `Cc1cc(N(CC(=O)NC2CC2)S(C)(=O)=O)ccc1Br`?
NS1 inh: -11%; MARV entry inh: inconclusive; StopGo reporter: -14%; SARS PLP yeast: -4%; LASV entry inh: -4%; Cruzain noTriton: 0%; RE007 growth inh: -8%; Cruzain inh Det: 0.5%

How did CCC(C)NS(=O)(=O)c1ccc(S(=O)(=O)N(CC(=O)Nc2ccccc2)CC2CCCO2)cc1 (centres undefined) do in these assays?
NS1 inh: 2%; MARV entry inh: inconclusive; StopGo reporter: 11%; SARS PLP yeast: -2%; LASV entry inh: inconclusive; Cruzain noTriton: 5%; RE007 growth inh: -2%; Cruzain inh Det: -4.1%

What do the screens show for `O=C(O)c1ccc(Nc2ncc([N+](=O)[O-])cc2[N+](=O)[O-])cc1`?
NS1 inh: 0%; MARV entry inh: -2%[46.1 µM]; StopGo reporter: -21%; SARS PLP yeast: -1%; LASV entry inh: 1%; RE007 growth inh: -10%

How did COc1ccc(C2=NOC3(CC(=O)N(c4ccc(C)cc4)C3=O)C2)c(OC)c1 (centres undefined) do in these assays?
NS1 inh: -32%; MARV entry inh: -2%; StopGo reporter: 5%; SARS PLP yeast: 2%; LASV entry inh: 13%; Cruzain noTriton: 2%; RE007 growth inh: 6%; Cruzain inh Det: 4.7%

Results for CC(C)(C)n1nc2c(c1NC(=O)Cc1ccc(Cl)cc1)CS(=O)(=O)C2 ?
NS1 inh: -7%; MARV entry inh: 10%; StopGo reporter: -5%; SARS PLP yeast: 3%; LASV entry inh: 1%; RE007 growth inh: 25%

How did O=c1c2cc3c(cc2n(Cc2cccc(Cl)c2)c(=O)n1Cc1nc(-c2ccccc2)no1)OCO3 do in these assays?
StopGo reporter: -18%; LASV entry inh: -13%[46.1 µM]; Cruzain noTriton: -5%; Cruzain inh Det: 1.1%

Results for Cc1cccc(OCC(=O)NCC(c2cccs2)N2CCOCC2)c1 (centres undefined) ?
MARV entry inh: 7%; StopGo reporter: -15%; SARS PLP yeast: 0%; LASV entry inh: 16%; RE007 growth inh: 6%

Results for O=C(Cn1nnc2ccccc21)Nc1ccc([N+](=O)[O-])cc1 ?
NS1 inh: 1%; MARV entry inh: 11%[46.1 µM]; StopGo reporter: -7%; SARS PLP yeast: 1%; LASV entry inh: -14%; RE007 growth inh: 6%
